PrP 5UTR inh: inhibition of PrP 5' UTR reporter expression. inhibition, % (no concentration beside the values). cell-based PrP 5' UTR mRNA reporter, plate reader. AID 488862. 340,000 tested, 0.35% active;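 active = every replicate at 50% or more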;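 note: 0 = median of the neutral control wells; tested in H4 reporter cells; numbers are from one replicate; inactives centre near -14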
Mtb hypoxia rep: reduces hypoxia-regulated biosensor signal in M. tuberculosis | M. tuberculosis hypoxia-regulated fluorescent reporter, fluorescence | fluorescence inhibition, % (concentration not given with the values) | AID 1159583 | 300,000 tested, 0.1% active;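 active = 35 to 45% if threefold the growth effect, above 45% if 1.5-fold the growth effect; inactive = the rest, general growth blockers included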;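 note: wells of about 50 µL received 100 nL stock; 0% = vehicle wells and 100% = reference inhibitor wells; whole bacteria with a GFP reporter of the hypoxia response; strong numbers were not always called active; many hits fall short of the cut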
Bead autofluor: compound fluorescence in toxin protease inhibitor counterscreen; compound autofluorescence counterscreen, microsphere flow cytometry; hits give high values; fluorescence intensity (concentration not given with the values); 360,000 tested, 3.1% active; AID 624483;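 active = at least 3 SD above the mean of all compounds, about 16000 in these data; inconclusive = too few beads counted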;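 note: 100 nL of 1 mM stock went into each well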
Sa ugtP lethal: growth inhibition of S. aureus ugtP deletion strain | S. aureus RN4220 ugtP deletion, OD600 growth, 16 h; some inactives read as strong as hits | growth inhibition, % (no concentration beside the values) | 330,000 tested, 0.54% active;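 active = z-score under -3 and OD600 up to 0.15 on both plates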;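 note: plate controls were untreated wells for no effect and antibiotic for full effect; wells of about 80 µL received 100 nL stock; the first replicate is given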
BJeLR lethal: kills HRASV12-expressing BJeLR cells; BJeLR (HRASV12) viability, CellTiter-Glo ATP luminescence, 48 h; reference of the scale not given here; inhibition, % (no concentration beside the values); 300,000 tested, 0.17% active; AID 1554;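 active = replicate mean above 50%; inconclusive = above 50% but judged a plate artefact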;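 note: 50 nL library stock added to about 25 µL; numbers are from one replicate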
RN4220 kill: kills Staphylococcus aureus RN4220; AID 1259311; S. aureus RN4220 growth, OD600, 16 h; 330,000 tested, 0.33% active; inhibition, % (test concentration not listed);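 active = z-score of -3 or lower and OD600 up to 0.18 on both plates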;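 note: plate controls were untreated cells for no effect and reference antibiotic for full effect; stock transfer was 100 nL into about 80 µL; one replicate is shown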
Mtb hypoxia rep growth: further read-out of Mtb hypoxia rep, marked with its call; growth inhibition, %; measured here: M. tuberculosis growth (absorbance);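 0% = vehicle and 100% = reference antibiotic; read after six days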
The depositor's hits bear a star.

`Cn1c(CNC(=O)CNS(=O)(=O)c2ccccc2)cc(=O)n(C)c1=O` gave PrP 5UTR inh -9, Mtb hypoxia rep -5, Bead autofluor 4571, Sa ugtP lethal 0, BJeLR lethal 4, RN4220 kill -4.1 and Mtb hypoxia rep growth -4.
For O=C1/C(=C/c2cccnc2)N=C2CCCCCN12 the results were PrP 5UTR inh -11, Mtb hypoxia rep -5, Bead autofluor 2467, Sa ugtP lethal -2, BJeLR lethal 3, RN4220 kill 2.2 and Mtb hypoxia rep growth 6.
`CCOc1cc(/C=C2\C(=O)ON=C2c2ccccc2)cc(Br)c1O` gave PrP 5UTR inh 4, Mtb hypoxia rep 6, Bead autofluor 3596, Sa ugtP lethal 8, BJeLR lethal 8, RN4220 kill 5.5 and Mtb hypoxia rep growth -3.
For O=C(O)COc1c(Cl)cc(/C=C2/NC(=O)NC2=O)cc1Br the results were PrP 5UTR inh 4, Bead autofluor 4726 and BJeLR lethal 4.
`COc1ccc(C(O)=C2C(=O)C(=O)N(CCCN(C)C)C2c2ccc(Cl)cc2)cc1OC` (stereo unspecified) gave Mtb hypoxia rep 4, Sa ugtP lethal 2, RN4220 kill 7.3 and Mtb hypoxia rep growth 8.
For CCC(C)NC(=O)C(=O)NC1CCCC1 (stereo unspecified) the results were PrP 5UTR inh -12, Mtb hypoxia rep -7, Bead autofluor 2046, Sa ugtP lethal -4, BJeLR lethal 3, RN4220 kill -5.0 and Mtb hypoxia rep growth 2.
Screening COc1cccc(Nc2nc3ccccc3nc2-n2nc(C)cc2C)c1 returned PrP 5UTR inh -1, Mtb hypoxia rep -1, Bead autofluor 4564, Sa ugtP lethal -1, BJeLR lethal -12, RN4220 kill 1.5 and Mtb hypoxia rep growth 2.
`Cc1c(Cl)cccc1-n1c(-c2cccnc2)n[nH]c1=S` gave PrP 5UTR inh -15, Mtb hypoxia rep 15, Bead autofluor 2984, Sa ugtP lethal 7, BJeLR lethal 4, RN4220 kill 2.2 and Mtb hypoxia rep growth 0.
For Cc1cc(N2C(=O)C3C4CC(c5ccccc5)C(C4)C3C2=O)no1 (stereo unspecified) the results were PrP 5UTR inh -10, Mtb hypoxia rep 3, Bead autofluor 2611, Sa ugtP lethal 9, BJeLR lethal 0, RN4220 kill 1.5 and Mtb hypoxia rep growth 5.
For O=C(COc1ccc2c(c1)oc(=O)c1ccccc12)NCC1CCC(C(=O)O)CC1 (stereo unspecified) the results were PrP 5UTR inh -12, Bead autofluor 6060, Sa ugtP lethal -7, BJeLR lethal 0 and RN4220 kill 0.1.
COc1cc(/C=C(\C#N)c2nc3ccccc3[nH]2)cc(Br)c1OCc1ccc(F)cc1 was read as PrP 5UTR inh -14, Bead autofluor 2971, Sa ugtP lethal -2, BJeLR lethal 3 and RN4220 kill -1.0.
`Cc1nc(CC(=O)c2ccc(O)cc2O)cs1` gave PrP 5UTR inh -19, Mtb hypoxia rep 5, Bead autofluor 22193*, Sa ugtP lethal 3, BJeLR lethal 6, RN4220 kill 4.6 and Mtb hypoxia rep growth 8.
C=CCN(c1ccccc1C(=O)NCC(=O)O)S(=O)(=O)c1ccccc1C was read as PrP 5UTR inh -5, Mtb hypoxia rep 12, Bead autofluor 6923, Sa ugtP lethal 7, BJeLR lethal 4, RN4220 kill 2.7 and Mtb hypoxia rep growth 16.
Screening Cn1cc(S(=O)(=O)N2CCNCC2)cc1C(N)=O returned PrP 5UTR inh -6, Mtb hypoxia rep 1, Bead autofluor 8483, Sa ugtP lethal -5, RN4220 kill -2.6 and Mtb hypoxia rep growth 7.
Screening CCc1[nH]nc(C(=O)N2CCCC(C(=O)c3cccc(C(F)(F)F)c3)C2)c1C (stereo unspecified) returned PrP 5UTR inh -3, Mtb hypoxia rep -8, Bead autofluor 5532, Sa ugtP lethal -1, BJeLR lethal 2, RN4220 kill 0.5 and Mtb hypoxia rep growth 2.
For COc1ccc2c(C(=O)CN(C)C3CCCCC3)c[nH]c2c1 the results were PrP 5UTR inh -7, Mtb hypoxia rep 8, Bead autofluor 3689, Sa ugtP lethal 8, BJeLR lethal 8, RN4220 kill 3.2 and Mtb hypoxia rep growth 9.
For Cc1ccccc1CN1CCc2c(OCC(=O)N3CCCCC3)cccc2C1=O the results were PrP 5UTR inh -23, Mtb hypoxia rep 16, Bead autofluor 3329, Sa ugtP lethal 4, BJeLR lethal 4, RN4220 kill 4.1 and Mtb hypoxia rep growth 10.
`NC(=O)C1(N2CCCCC2)CCN(C(=O)CCCn2c(=O)[nH]c3ccsc3c2=O)CC1` gave PrP 5UTR inh -23, Mtb hypoxia rep 1, Bead autofluor 6298, Sa ugtP lethal -3, RN4220 kill -13 and Mtb hypoxia rep growth 1.
Screening O=S(=O)(Nc1ccc(-c2nc3cccnc3s2)cc1)c1ccc(Cl)s1 returned PrP 5UTR inh -44, Mtb hypoxia rep -8, Bead autofluor 7030, Sa ugtP lethal 79, BJeLR lethal -12, RN4220 kill 16 and Mtb hypoxia rep growth 11.
For CC(=O)c1cccc(NC(=S)NC(=O)c2ccccc2C)c1 the results were PrP 5UTR inh 5, Mtb hypoxia rep -1, Bead autofluor 4128, Sa ugtP lethal 4, BJeLR lethal 6, RN4220 kill 6.5 and Mtb hypoxia rep growth 10.
For COc1ccccc1CNS(=O)(=O)c1ccc2c(c1)NC(=O)C(C)S2 (stereo unspecified) the results were PrP 5UTR inh -7, Mtb hypoxia rep 14, Bead autofluor 5018, Sa ugtP lethal 35, BJeLR lethal 2, RN4220 kill 55 and Mtb hypoxia rep growth 13.
For Cn1cccc1C(=O)OCC(=O)Nc1ccc2c(c1)OCCO2 the results were PrP 5UTR inh -59, Mtb hypoxia rep 0, Bead autofluor 3574, Sa ugtP lethal 5, RN4220 kill 2.4 and Mtb hypoxia rep growth 11.
`CC(C1CC1)N(C(=O)c1ccccc1[N+](=O)[O-])c1ccccc1` (stereo unspecified) gave PrP 5UTR inh -31, Mtb hypoxia rep 9, Bead autofluor 4508, Sa ugtP lethal 9, BJeLR lethal -1, RN4220 kill 3.4 and Mtb hypoxia rep growth 9.
For O=C(Nc1cc(Cl)cc(Cl)c1)c1cccc(OC(F)F)c1 the results were PrP 5UTR inh -34, Mtb hypoxia rep -26, Bead autofluor 8019, Sa ugtP lethal -47, BJeLR lethal -1, RN4220 kill -8.4 and Mtb hypoxia rep growth -15.
For CCNC(=O)NC(=O)C(C)OC(=O)C1CCN(S(=O)(=O)c2ccccc2C(=O)OC)CC1 (stereo unspecified) the results were PrP 5UTR inh -21, Mtb hypoxia rep 8, Bead autofluor 4121, Sa ugtP lethal 11, BJeLR lethal -1, RN4220 kill 0.7 and Mtb hypoxia rep growth 7.
For Cc1cccc(C(=O)N2c3ccccc3C(=O)OC2c2ccc3c(c2)OCO3)c1 (stereo unspecified) the results were PrP 5UTR inh -24, Bead autofluor 2061, Sa ugtP lethal -6, BJeLR lethal -1 and RN4220 kill -2.7.
For O=C(CN(Cc1ccccc1Cl)C(=O)c1ccc(CN2CCOCC2)o1)NCc1ccccc1 the results were PrP 5UTR inh -10, Mtb hypoxia rep 0, Bead autofluor 11540, Sa ugtP lethal 3, BJeLR lethal 10, RN4220 kill 3.3 and Mtb hypoxia rep growth -10.
CCc1ccccc1NC(=O)COc1ccc2c(=O)c(Oc3cc(C)ccc3C)coc2c1 was read as PrP 5UTR inh -10, Bead autofluor 2450 and BJeLR lethal 13.
Screening CC(C)C(NC(=O)c1c(F)cccc1F)C(=O)OCN1C(=O)c2ccccc2C1=O (stereo unspecified) returned PrP 5UTR inh -17, Mtb hypoxia rep 1, Bead autofluor inconclusive, Sa ugtP lethal 5, RN4220 kill 2.9 and Mtb hypoxia rep growth -2.
For O=C(Nc1cccc2c1N(C(=O)c1ccco1)CCC2)c1ccco1 the results were PrP 5UTR inh -14, Mtb hypoxia rep -6, Bead autofluor 3553, Sa ugtP lethal -1, BJeLR lethal 4, RN4220 kill 1.4 and Mtb hypoxia rep growth 7.
N#CC1=C(N)NC(SCC(=O)Nc2ccccc2)=C(C#N)C12CCCC2 was read as PrP 5UTR inh -14, Bead autofluor 2799, Sa ugtP lethal -2, BJeLR lethal 2 and RN4220 kill -5.4.
Cc1ccc2nc(NCc3ccccc3)[nH]c2c1 was read as PrP 5UTR inh -116, Mtb hypoxia rep 5, Bead autofluor 3728, Sa ugtP lethal 1, BJeLR lethal 30, RN4220 kill 0.2 and Mtb hypoxia rep growth 9.
CCOc1ccccc1NC(=O)CCCNC(=O)c1ccc(Cl)cc1 was read as PrP 5UTR inh -6, Mtb hypoxia rep -14, Bead autofluor 5299, Sa ugtP lethal 0, BJeLR lethal 5, RN4220 kill -0.2 and Mtb hypoxia rep growth 1.
CCc1ccc(C2=NN(CCC(=O)NC(C)c3ccc4c(c3)OCCO4)C(=O)CC2)cc1 (stereo unspecified) was read as PrP 5UTR inh -4, Mtb hypoxia rep -6, Bead autofluor 3490, Sa ugtP lethal 0, BJeLR lethal 3, RN4220 kill -0.5 and Mtb hypoxia rep growth -4.
For CCOc1ccc(NC(=O)CN(C)C(=O)c2ccccc2CCc2ccccc2)cc1OCC the results were PrP 5UTR inh -7, Mtb hypoxia rep -1, Bead autofluor 4659, Sa ugtP lethal 9, BJeLR lethal 1, RN4220 kill 6.9 and Mtb hypoxia rep growth -5.
For CC(=NNC(=O)CNC(=O)C(c1ccccc1)c1ccccc1)c1ccc(C(C)(C)C)cc1 the results were Mtb hypoxia rep -3, Sa ugtP lethal 31, RN4220 kill 14 and Mtb hypoxia rep growth -4.
`O=C1C(NS(=O)(=O)c2cccs2)=C(N2CCOCC2)C(=O)c2ccccc21` gave PrP 5UTR inh -13, Mtb hypoxia rep 22, Bead autofluor 4624, Sa ugtP lethal 9, BJeLR lethal 12, RN4220 kill 16 and Mtb hypoxia rep growth 5.
O=C(COC(=O)/C=C/c1cccc(Cl)c1)NCCC1=CCCCC1 was read as PrP 5UTR inh -25, Mtb hypoxia rep 7, Bead autofluor 2199, Sa ugtP lethal 5, BJeLR lethal 9, RN4220 kill 5.5 and Mtb hypoxia rep growth -1.
For Cc1onc(-c2ccccc2)c1C(=O)OCC(=O)Nc1ccc(Cl)cc1 the results were PrP 5UTR inh 14, Bead autofluor 2920, Sa ugtP lethal 0 and RN4220 kill -11.
Screening Cc1ccnc2nc(C(=O)OCCOc3ccccc3)nn12 returned PrP 5UTR inh -17, Bead autofluor 4055, Sa ugtP lethal 4, BJeLR lethal 6 and RN4220 kill 3.9.
`O=C(NNC(=O)C1CC1)c1ccc(-c2ccccc2)cc1` gave PrP 5UTR inh 7, Mtb hypoxia rep 1, Bead autofluor 10917, Sa ugtP lethal 11, BJeLR lethal -14, RN4220 kill -2.1 and Mtb hypoxia rep growth -2.

By substructure: the entries above containing an NH in an aromatic ring (6)
`Cc1c(Cl)cccc1-n1c(-c2cccnc2)n[nH]c1=S` gave PrP 5UTR inh -15, Mtb hypoxia rep 15, Bead autofluor 2984, Sa ugtP lethal 7, BJeLR lethal 4, RN4220 kill 2.2 and Mtb hypoxia rep growth 0.
COc1cc(/C=C(\C#N)c2nc3ccccc3[nH]2)cc(Br)c1OCc1ccc(F)cc1 was read as PrP 5UTR inh -14, Bead autofluor 2971, Sa ugtP lethal -2, BJeLR lethal 3 and RN4220 kill -1.0.
Screening CCc1[nH]nc(C(=O)N2CCCC(C(=O)c3cccc(C(F)(F)F)c3)C2)c1C (stereo unspecified) returned PrP 5UTR inh -3, Mtb hypoxia rep -8, Bead autofluor 5532, Sa ugtP lethal -1, BJeLR lethal 2, RN4220 kill 0.5 and Mtb hypoxia rep growth 2.
For COc1ccc2c(C(=O)CN(C)C3CCCCC3)c[nH]c2c1 the results were PrP 5UTR inh -7, Mtb hypoxia rep 8, Bead autofluor 3689, Sa ugtP lethal 8, BJeLR lethal 8, RN4220 kill 3.2 and Mtb hypoxia rep growth 9.
`NC(=O)C1(N2CCCCC2)CCN(C(=O)CCCn2c(=O)[nH]c3ccsc3c2=O)CC1` gave PrP 5UTR inh -23, Mtb hypoxia rep 1, Bead autofluor 6298, Sa ugtP lethal -3, RN4220 kill -13 and Mtb hypoxia rep growth 1.
Cc1ccc2nc(NCc3ccccc3)[nH]c2c1 was read as PrP 5UTR inh -116, Mtb hypoxia rep 5, Bead autofluor 3728, Sa ugtP lethal 1, BJeLR lethal 30, RN4220 kill 0.2 and Mtb hypoxia rep growth 9.
